Screening results (PubChem)
DUX4 inh – DUX4-mediated transcription inhibition; 293T-iDUX4 ZSCAN4-Gaussia luciferase reporter, 24 h; hits give low values; activity change, negative = inhibition, % (concentration not given with the values); 37,000 compounds, 0.8% hits; AID 1224904;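 active = -10% or lower and over 25 points stronger than a control reporter; inconclusive = -10% or lower with a smaller gap; inactive = above -10%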;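 note: 0% = median of neutral control wells and -100% = median of positive control wells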
DUX4 inh difference – recorded beside DUX4 inh, whose call it bears; Gaussia minus Italica difference, %; measured here: selective DUX4 reporter inhibition;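 worked out from the two reporters; negative = selective loss of the DUX4 reporter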
DUX4 inh control – further read-out of DUX4 inh, marked with its call; activity change, negative = inhibition, %; measured here: Italica tet-on control reporter;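 0 = neutral control and -100 = positive control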
Numbers without * were called inactive; ? = inconclusive; . = not tested or not shown; & = joins results of further samples. A portion of the library (hit frequency here may not be typical).

SMILES | DUX4 inh | DUX4 inh difference | DUX4 inh control
COc1ccc2c3c(n(C)c2c1)[C@H](CO)N(C(=O)c1cnccn1)CC31CN(C)C1 | -0.1 | -1.7 | 1.6
CC1C=NC(S(=O)(=O)N2CC[C@@H]3[C@H](CO)N(C)c4ccc(-c5cccc(F)c5)cc4[C@@H]32)=N1 (stereo partly drawn) | 22.4 | 14.5 | 7.9
C[C@@H]1CN([C@@H](C)CO)C(=O)CCCn2cc(nn2)CO[C@H]1CN(C)C(=O)Cc1ccccc1 | 0.7 | -3.3 | 3.9
C[C@H]1CCCCO[C@@H](CN(C)C(=O)Cc2ccccc2)[C@@H](C)CN([C@@H](C)CO)C(=O)c2cc(NS(C)(=O)=O)ccc2O1 | -3.8 | -1.6 | -2.2
C[C@@H](NC(=O)[C@@H]1[C@@H](CO)[C@@H]2Cn3c(ccc(C4=CCCCC4)c3=O)[C@@H]2N1C)c1ccccc1 | 3.5 | 2.1 | 1.4
CCNC(=O)C[C@H]1CC[C@H]2[C@@H](COC[C@H](O)CN2Cc2ccncc2)O1 | 6.7 | -5.3 | 12.0
C[C@@H]1CN([C@@H](C)CO)S(=O)(=O)c2ccc(C#CCC3CCCC3)cc2O[C@H]1CN(C)C(=O)c1cnccn1 | 0.5 | -1.9 | 2.4
COc1ccccc1-c1ccc([C@@H]2[C@@H](C#N)N(C(=O)C3CCC3)[C@H]2CO)cc1 | 2.7 | 1.5 | 1.2
COc1ccc2c3c(n(C)c2c1)[C@H](CO)N(C(C)=O)CC31CN(C(=O)Nc2ccc(F)cc2)C1 | 13.2 | -6.7 | 19.9
COCC(=O)N1CC2(C1)CN(Cc1cccc(OC)c1)[C@H](CO)c1[nH]c3cc(OC)ccc3c12 | -2.6 | 14.1 | -16.6
CCC(=O)N1CCCCN2[C@H](C1)[C@H](c1ccc(-c3cccc(C(=O)N(C)C)c3)cc1)[C@@H]2CO | 20.7 | 16.7 | 4.0
Cc1cccc(S(=O)(=O)N2C[C@@H](O)COC[C@H]3O[C@H](CC(=O)NCc4ccc5c(c4)OCO5)CC[C@@H]32)c1 | 5.7 | 1.9 | 3.9
CCCNC(=O)C[C@H]1CC[C@H]2[C@@H](COC[C@@H](O)CN2S(=O)(=O)c2ccc(Oc3ccccc3)cc2)O1 | 2.8 | 5.9 | -3.1
CC(C)NC(=O)Nc1ccc2c(c1)C(=O)N([C@@H](C)CO)C[C@@H](C)[C@@H](CN(C)S(=O)(=O)c1ccc(F)cc1)OCCCC[C@H](C)O2 | 2.8 | 0.2 | 2.6
CN(C)C(=O)c1cccc(-c2ccccc2[C@@H]2[C@@H](C#N)N(C(=O)C3CCC3)[C@@H]2CO)c1 | 18.9 | 11.4 | 7.5
O=C(C[C@H]1CC[C@H]2[C@@H](COC[C@@H](O)CN2C(=O)c2ccccc2F)O1)NCc1ccc(Cl)c(Cl)c1 | -4.5 | -2.8 | -1.8
O=C(C[C@@H]1CC[C@H]2[C@@H](COC[C@@H](O)CN2C(=O)c2ccccc2F)O1)NCc1ccc(Cl)cc1 | ? | . | .
C/C=C/c1ccc([C@@H]2[C@H](CO)N3CCCCN(C(=O)Nc4ccc(OC)cc4)C[C@@H]23)cc1 | 18.3 | 5.8 | 12.5
C/C=C/c1ccc([C@H]2[C@@H](CO)N3CCCCN(S(=O)(=O)c4ccc(F)cc4)C[C@H]23)cc1 | 3.1 | -16.7 | 19.8
C[C@H](CO)N1C[C@H](C)[C@@H](CN(C)Cc2ccc(C(=O)O)cc2)Oc2ccc(NC(=O)Nc3ccc(C(F)(F)F)cc3)cc2C1=O | 1.2 | 2.9 | -1.7
C/C=C/c1ccc([C@H]2[C@@H](CO)N(C(=O)CN(C)C)[C@H]2CN(C)C(C)=O)cc1 | 2.0 | 1.4 | 0.6
O=C(CN1CCOCC1)N1CC[C@H]2[C@H](CO)Nc3ccc(-c4ccc(F)cc4)cc3[C@H]21 | -2.7 | -13.6 | 10.9
COc1ccc(CNC(=O)N(C)C[C@@H]2OCc3ccccc3-c3ccccc3C(=O)N([C@H](C)CO)C[C@H]2C)cc1 | 11.3 | 7.2 | 4.0
CC(C)COC(=O)N(C)C[C@H]1OCc2cn(nn2)CCCC(=O)N([C@@H](C)CO)C[C@H]1C | -2.0 | 0.4 | -2.3
CC(C)[C@@H]1COCn2nncc2CCCC(=O)N1 | -6.0 | -13.2 | 7.1
CNC[C@@H]1Oc2c(NC(=O)NC3CCCCC3)cccc2C(=O)N([C@H](C)CO)C[C@H]1C | -3.1 | -1.9 | -1.2
CC(=O)N1[C@H](CO)[C@H](c2ccccc2)[C@H]1CN(C(=O)c1cccc(F)c1)C(C)C | -1.4 | 0.8 | -2.2
CCS(=O)(=O)N1CCCCN2[C@@H](CO)[C@@H](c3ccc(-c4ccccc4C)cc3)[C@@H]2C1 | -3.4 | -8.5 | 5.1
COc1ccc(S(=O)(=O)N2CC[C@@H]3[C@H]2c2cc(Br)ccc2N[C@@H]3CO)cc1 | 24.7 | 20.1 | 4.7
Cc1ccccc1-c1ccc([C@@H]2[C@H](CO)N3CCCCN(C(=O)c4cccnc4)C[C@@H]23)cc1 | -0.6 | 3.0 | -3.5
CC(=O)NC[C@H]1[C@H](c2ccccc2)[C@H](CO)N1C(=O)Cc1ccncc1 | -1.9 | -0.8 | -1.1
N#C[C@H]1[C@@H](c2ccc(-c3ccccc3F)cc2)[C@H](CO)N1C(=O)C1CCC1 | 3.3 | -5.8 | 9.2
COc1ccc(S(=O)(=O)N(C)C[C@@H]2Oc3ccc(NC(=O)NC4CCCCC4)cc3CC(=O)N([C@H](C)CO)C[C@H]2C)cc1 | -1.2 | 3.6 | -4.8
COc1ccc2c3c(n(C)c2c1)[C@@H](CO)N(C(=O)CN(C)C)CC31CCN(C(=O)NC(C)C)CC1 | 15.3 | 6.6 | 8.6
CC(C)[C@@H]1CCc2cnnn2COC[C@H](Cc2ccccc2)NC1=O | -0.1 | 2.6 | -2.7
CO[C@@H]1CN(C)C(=O)c2ccc(NC(=O)C3CCOCC3)cc2OC[C@@H](C)N(C)C[C@@H]1C | 9.3 | 1.1 | 8.2
C[C@@H]1CN([C@H](C)CO)C(=O)c2cc(-c3cccc(C#N)c3)cnc2O[C@H]1CN(C)C(=O)C1CCOCC1 | 2.0 | -0.9 | 2.9
C[C@@H]1CN([C@H](C)CO)C(=O)c2cc(C3=CCCC3)cnc2O[C@@H]1CN(C)C(=O)NC1CCCC1 | -1.9 | -1.9 | -0.1
CC=Cc1ccc2n(c1=O)C[C@H]1[C@H](CO)[C@@H](C(=O)NCC)N(C(=O)C3CCOCC3)[C@@H]21 (mixture of isomers) | 6.2 | 8.2 | -2.1
CN(C)CC(=O)N1[C@H](C#N)[C@@H](c2ccc(C#Cc3cccnc3)cc2)[C@H]1CO | -0.7 | 0.7 | -1.4
CCC(=O)N1C[C@@H](O)COC[C@@H]2O[C@H](CC(=O)NCc3ccccc3Cl)CC[C@H]21 | 3.9 | -0.8 | 4.7
CCC(=O)N1CC2(CN(Cc3cccnc3)C2)c2c(n(C)c3cc(OC)ccc23)[C@@H]1CO | 4.6 | 0.8 | 3.8
Cc1noc(C)c1NC(=O)NCC[C@@H]1CC[C@H](NC(=O)Cc2cccnc2)[C@@H](CO)O1 | 7.1 | 11.6 | -4.5
CCN1[C@@H]2Cn3c(ccc(-c4ccccc4F)c3=O)[C@H]1[C@@H](C(=O)NCCOC)[C@@H]2CO | 3.1 | -0.3 | 3.4
CN(C[C@@H]1[C@@H](c2ccccc2)[C@@H](CO)N1Cc1ccccn1)S(C)(=O)=O | -3.8 | -2.5 | -1.3
C[C@@H]1CN([C@@H](C)CO)C(=O)CCCn2nncc2CO[C@@H]1CN(C)Cc1ccc2cccnc2c1 | 2.5 | 4.3 | -1.8
CO[C@H]1CN(C)C(=O)c2ccc(NC(=O)Nc3ccccc3F)cc2OC[C@H](C)N(C(C)=O)C[C@@H]1C | ? | . | .
Cc1ccc(-c2ccc([C@H]3[C@H]4CN(C(=O)CN5CCOCC5)CC(=O)N4[C@H]3CO)cc2)cc1 | 6.9 | 6.6 | 0.3

Molecules listed so far that contain a Cl atom (three):
SMILES | DUX4 inh | DUX4 inh difference | DUX4 inh control
O=C(C[C@H]1CC[C@H]2[C@@H](COC[C@@H](O)CN2C(=O)c2ccccc2F)O1)NCc1ccc(Cl)c(Cl)c1 | -4.5 | -2.8 | -1.8
O=C(C[C@@H]1CC[C@H]2[C@@H](COC[C@@H](O)CN2C(=O)c2ccccc2F)O1)NCc1ccc(Cl)cc1 | ? | . | .
CCC(=O)N1C[C@@H](O)COC[C@@H]2O[C@H](CC(=O)NCc3ccccc3Cl)CC[C@H]21 | 3.9 | -0.8 | 4.7

Later entries:
SMILES | DUX4 inh | DUX4 inh difference | DUX4 inh control
CCCNC(=O)N1CC2(C1)CN(Cc1ccc(F)cc1)[C@H](CO)c1[nH]c3cc(OC)ccc3c12 | -8.3 | -0.1 | -8.2
COc1ccccc1NC(=O)N1[C@@H](C#N)[C@@H](c2ccccc2)[C@@H]1CO | 1.1 | 2.9 | -1.8
N#Cc1ccc(-c2ccc([C@@H]3[C@@H](CO)N4C(=O)CN(C(=O)C5CCCCC5)C[C@H]34)cc2)cc1 | 9.8 | 16.0 | -6.1
CC(=O)N1[C@H](CN(C)C(=O)C2CCC2)[C@@H](c2ccccc2)[C@@H]1CO | -4.0 | -1.8 | -2.1
CCC(=O)N1CC2(C1)CN(Cc1ccccc1Cl)[C@@H](CO)c1c2c2ccc(OC)cc2n1C | 9.1 | 15.4 | -6.3
CO[C@@H]1CN(C)C(=O)c2ccc(NC(=O)Nc3ccccc3F)cc2OC[C@@H](C)N(CC2CC2)C[C@H]1C | -1.7 | -5.3 | 3.5
COc1cccc(NC(=O)N2CC(=O)N3[C@@H](CO)[C@H](c4ccc(C#CC5CCCCC5)cc4)[C@@H]3C2)c1 | -47.4* | -29.1* | -18.3*
C[C@H](CO)N1C[C@H](C)[C@H](CN(C)C(=O)Nc2cccc(C(F)(F)F)c2)OCc2cn(nn2)CCCC1=O | 2.1 | 1.0 | 1.1
CC(C)COC(=O)N(C)C[C@@H]1OCc2ccccc2-c2c(n(C)c3ccccc23)C(=O)N([C@@H](C)CO)C[C@@H]1C | ? | . | .
CC(=O)N1CC(=O)N2[C@H](CO)[C@@H](c3ccc(C#CC(C)C)cc3)[C@@H]2C1 | 12.5 | -2.1 | 14.6
O=C(Nc1cccc(F)c1)N1CCCCN2[C@@H](CO)[C@H](c3ccc(C#CC4CC4)cc3)[C@@H]2C1 | ? | . | .
COc1cccc(-c2ccc(C3[C@H]4CNC[C@@H]3N4C(=O)Nc3ccccc3Cl)cc2)c1 (stereo partly drawn) | 4.3&5.2 | 1.2&0.1 | 3.1&5.1
CCCN(C)C[C@@H]1OCCCC[C@@H](C)Oc2ccc(N(C)C)cc2C(=O)N([C@H](C)CO)C[C@@H]1C | 2.9 | 4.5 | -1.6
COc1ccc2c3c([nH]c2c1)[C@H](CO)N(Cc1ccccc1OC)CC31CN(C)C1 | -2.2 | -4.8 | 2.6
CCC(=O)N1CCCCN2[C@H](CO)[C@H](c3ccc(C#Cc4ccccc4)cc3)[C@@H]2C1 | 1.2 | -8.4 | 9.6
COC(=O)C[C@@H]1CC[C@@H]2[C@H](COC[C@H](O)CN2CCC(F)(F)F)O1 | 5.1 | -1.8 | 6.9
O=C(C[C@@H]1CC[C@H]2[C@@H](COC[C@@H](O)CN2C(=O)Nc2ccccc2)O1)NCc1ccccc1F | 2.2 | 5.5 | -3.4
O=C(C[C@H]1CC[C@H]2NC[C@@H](O)COC[C@@H]2O1)NCCc1ccccc1 | 14.6 | 8.8 | 5.8
Cc1noc(C)c1NC(=O)Nc1ccc2c(c1)C(=O)N([C@@H](C)CO)C[C@@H](C)[C@H](CN(C)S(=O)(=O)c1cccs1)OCCCC[C@H](C)O2 | 9.2 | 5.1 | 4.2
CC(C)NC(=O)N1CC[C@H]2[C@@H]1c1cc(C#Cc3ccccc3)ccc1N(C)[C@H]2CO | -3.7 | -8.7 | 5.0
COCC#Cc1ccc([C@@H]2[C@@H](CO)N3CCCCN(Cc4ccccc4F)C[C@H]23)cc1 | ? | . | .
C[C@H]1CN([C@@H](C)CO)C(=O)CCCn2cc(nn2)CO[C@H]1CN(C)C(=O)Nc1ccccc1C(F)(F)F | -3.2 | -3.7 | 0.5
C/C=C/c1ccc([C@H]2[C@@H](CO)N(CC3CCCCC3)[C@@H]2CNC(C)C)cc1 | 0.0 | 2.9 | -2.9
CN1CCN(C(=O)[C@H]2[C@H](CO)[C@H]3Cn4c(ccc(C5=CCCC5)c4=O)[C@@H]2N3S(C)(=O)=O)CC1 | 2.5 | 7.6 | -5.2
CO[C@H]1CN(C)C(=O)c2ccc(NC(=O)Nc3ccc(C(F)(F)F)cc3)cc2OC[C@@H](C)NC[C@H]1C | -9.4 | -16.5 | 7.1

Results in DUX4 inh control, for six of the compounds above:
structure	DUX4 inh control
O=C(C[C@H]1CC[C@H]2NC[C@@H](O)COC[C@@H]2O1)NCCc1ccccc1	5.8
COC(=O)C[C@@H]1CC[C@@H]2[C@H](COC[C@H](O)CN2CCC(F)(F)F)O1	6.9
Cc1noc(C)c1NC(=O)Nc1ccc2c(c1)C(=O)N([C@@H](C)CO)C[C@@H](C)[C@H](CN(C)S(=O)(=O)c1cccs1)OCCCC[C@H](C)O2	4.2
CO[C@H]1CN(C)C(=O)c2ccc(NC(=O)Nc3ccc(C(F)(F)F)cc3)cc2OC[C@@H](C)NC[C@H]1C	7.1
C[C@H]1CN([C@@H](C)CO)C(=O)CCCn2cc(nn2)CO[C@H]1CN(C)C(=O)Nc1ccccc1C(F)(F)F	0.5
COc1ccc2c3c([nH]c2c1)[C@H](CO)N(Cc1ccccc1OC)CC31CN(C)C1	2.6
